# Compound activity as filed in PubChem BioAssay.
# VDR inhibitor – inhibitors of human vitamin D receptor | VDR-SRC2-3 peptide fluorescence polarization, 2 h | Potency, µM, for inactives: max response, negative = inhibition, hits mostly inhibitors | actives 0.93% (n = 400,000) | AID 504847; active = well fitted inhibition curve with a large enough effect; inconclusive = small, poorly fitted or top-dose-only effect, or another doubt; inactive = no such curve, though single readings can be large or run the other way; note: series mostly up to about 120 µM
# Target sequence (P11473 whole entry, looked up): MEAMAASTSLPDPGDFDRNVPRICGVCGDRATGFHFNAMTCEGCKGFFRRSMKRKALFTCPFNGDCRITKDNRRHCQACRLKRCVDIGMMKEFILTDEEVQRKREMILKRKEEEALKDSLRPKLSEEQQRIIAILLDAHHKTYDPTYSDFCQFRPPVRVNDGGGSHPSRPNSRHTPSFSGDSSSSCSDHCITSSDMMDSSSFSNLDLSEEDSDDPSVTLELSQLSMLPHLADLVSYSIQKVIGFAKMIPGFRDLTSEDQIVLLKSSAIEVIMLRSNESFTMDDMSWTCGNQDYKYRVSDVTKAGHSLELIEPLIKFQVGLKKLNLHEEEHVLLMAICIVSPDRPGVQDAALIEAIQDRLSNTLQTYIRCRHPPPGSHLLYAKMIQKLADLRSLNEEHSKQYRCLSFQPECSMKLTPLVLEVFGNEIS
#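 Inhibition of the VDR/SRC2-3 peptide interaction is quantified by fluorescence polarization. Compounds (23 nl, pintool) incubate with the reagents for 2 hours at ambient room temperature.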
# * = called active by the depositor; ? = inconclusive; & = joins results of further samples. % is set by controls: 0 for no effect and ±100 for the full control effect; potency is the fitted concentration of half-maximal effect. An excerpt; rates above refer to the full screens.
mol | VDR inhibitor
Cc1ccc(CNc2nc3c(c(=O)n(C)c(=O)n3C)n2Cc2ccc(Cl)cc2)cc1 | -12.7%
O=C(c1sccc1-c1ccccc1)N1CCN(S(=O)(=O)c2ccccc2F)CC1 | 12.4%
Cn1c(CNC(=O)c2ccccc2F)nnc1SCCOc1ccccc1 | -20.4%
COc1ccc(-n2nc(N)c3c(=O)oc(N(C)C)nc32)cc1 | -3.2%
Cc1ccc(S(=O)(=O)N2CCC[C@H]2C(=O)OCCN2C(=O)c3ccccc3C2=O)cc1 | -22.8%
COc1ccc(C(C)=O)cc1COC(=O)Cn1cnc2ccccc2c1=O | 7.5%
O=C(O)c1cc(S(=O)(=O)Nc2ccc3cn[nH]c3c2)ccc1Cl | -16.7%
CCn1nc(NC(=O)c2cccs2)c2cc3ccccc3nc21 | -5.7%
Cc1ccccc1NC(=O)CSc1nnc(NC(=O)c2ccco2)s1 | -6.3%
CCc1cccc(CC)c1-n1c(SCC(=O)c2c(N)n(C)c(=O)n(C)c2=O)nnc1-c1cccnc1 | -2.5%

# The results go on:
mol | VDR inhibitor
COC(=O)c1c(N)sc(C(C)=O)c1C | 11.2%
C/C(CC(=O)Nc1ccc([N+](=O)[O-])cc1)=N\NC(=O)c1ccccc1[N+](=O)[O-] | 7.3%
CN(C)c1ccc(C=c2c3ccccc3n3c2cc(-c2ccc(Cl)cc2)[n+]3C)cc1 | -14.3%
CCc1ccc(-n2cnc3cc(C(=O)NCc4ccc(C)cc4)ccc32)cc1 | -1.3%
O=C(Cc1c[nH]c2ccccc12)NCc1ccc(Cl)cc1 | -19.6%
C=CCNc1ncnc2ccc(Br)cc12 | -4.8%&15.4%
CC(NC(=O)c1ccc(Nc2nc3ccccc3n3nnnc23)cc1)c1ccccc1 (stereo not given) | -3.9%
COc1ccc(OC)c(Nc2cc(C(=O)NCc3ccccc3)c3ccccc3n2)c1 | -12.4%
COC(=O)c1ccc(NS(=O)(=O)NC(=O)c2c[nH]c3ccccc23)cc1 | 8.8%
O=C(/C=C/c1ccc([N+](=O)[O-])cc1)NCc1ccc2c(c1)OCO2 | 10.1%

# More structures follow:
mol | VDR inhibitor
Cc1ccsc1C(=O)NCCc1ccc(S(N)(=O)=O)cc1 | -5.0%
CC(C)CNC(=O)C(=O)NCC1OCCCN1S(=O)(=O)c1ccc2c(c1)OCCO2 (stereo not given) | -4.7%
NC(=O)c1c(NC(=O)C2COc3ccccc3O2)sc2c1CCN(Cc1ccccc1)C2 (stereo not given) | 3.3%
Oc1ccc(Oc2ccc3c(C(F)(F)F)cc(C(F)(F)F)nc3n2)cc1 | -4.7%
COc1ccc(N2CC(NS(=O)(=O)c3cccs3)CC2=O)cc1OC (stereo not given) | 20.0%
Cc1cc2cc(CCNC(=O)CCCc3ccccc3)c(=O)[nH]c2cc1C | -12.2%
Cn1cccc1C(=S)N=P(C1CCCCC1)(N1CCOCC1)N1CCOCC1 | -2.7%
CCCCNC(=O)C1(NC(=O)Nc2ccccc2)CCCCC1 | -13.8%
CCc1ccc(NC(=O)COc2ccc(Br)cn2)cc1 | 8.6%
CCC(O)CNC(=O)NC(=C(Cl)Cl)c1ccc(C)c(F)c1 (stereo not given) | 5.5%

# Next part
mol | VDR inhibitor
CC1CCCN(C(=O)C(C)Sc2nc(-c3ccccc3)cc(C(F)(F)F)n2)C1 (stereo not given) | 3.4%
COc1ccccc1NC(=O)CSc1ncc(CO)n1Cc1ccc(F)cc1 | ?
CCC(C)NC(=O)C1CCN(C(=O)COc2ccc3c4c(c(=O)oc3c2C)CCCC4)CC1 (stereo not given) | 5.0%
COCCNC(=S)N/N=C(\C)c1ccc(Cl)s1 | 4.7%
O=C(NCCN1CCCC1=O)Nc1ccccc1 | 17.8%
Cc1ccccc1Oc1ccc(S(=O)(=O)NCCC(=O)O)cc1 | -13.3%
CCc1ccc2c(c1)c1nnc(NN)nc1n2CC | 0.0%
C[C@@]12C(=O)Nc3cc(F)ccc3C(=O)N1[C@H]1c3ccccc3OC[C@@H]1[C@@H]2c1ccccc1 | 5.8%
COc1ccc(-c2cc(C(=O)O)n(Cc3ccccc3)n2)cc1 | -2.6%
CCCNc1nc2c(c(=O)[nH]c(=O)n2C)n1CCCc1ccccc1 | -8.9%

# (continued)
mol | VDR inhibitor
CC(CS(=O)(=O)c1ccc2c(c1)NC(=O)CS2)C(=O)N1CCN(c2cccc(Cl)c2)CC1 (stereo not given) | -3.7%
OCC1(CO)COC(c2ccccc2)=N1 | 2.1%
CC1CN(CCOc2ccc([N+](=O)[O-])cc2)CC(C)O1 (stereo not given) | -15.0%
C=CCN1C(=O)C(CC(=O)Nc2ccc(OC)cc2)SC1=Nc1ccc(S(N)(=O)=O)cc1 (stereo not given) | 0.9%
CCOC(=O)c1cnc2cc(-c3ccc(Cl)cc3)nn2c1-c1ccccc1 | -0.3%
COc1cc(CNC(C)(C)CO)cc(Br)c1OCc1ccc(Cl)cc1 | 1.5%
COc1cc(CC(=O)OCC(=O)N(C)C2CCCCC2)cc(OC)c1OC | -16.5%
COc1ccc(NC2CCCN(C(=O)c3oc(C)cc3C)C2)cc1OC (stereo not given) | 0.8%
COCCCN1C(=O)C(=O)/C(=C(/O)c2ccc3c(c2)OCCO3)C1c1ccc(C(=O)OC)cc1 (stereo not given) | -5.0%
O=C(NCCc1ccc(C(F)(F)F)cc1)C1CCC(=O)N(CCc2cccc(F)c2)C1 (stereo not given) | -0.9%

# Going on with the list:
mol | VDR inhibitor
CCN(CC)S(=O)(=O)c1cccc(NC(=O)COc2ncnc3sccc23)c1 | 1.8%
CCOC(=O)Cn1nc(-c2ccccc2)c(-c2ccccc2)nc1=O | -12.0%
Cc1ccc(OCc2nn3c(-c4ccco4)nnc3s2)cc1 | -0.8%
CN1CC=C2C(C#N)=C(N)C(C#N)(C#N)C(c3cccc(Cl)c3Cl)C2C1 (stereo not given) | ?
O=C(NC1CCCc2ccccc21)C1CCCO1 (stereo not given) | 10.3%
O=C(NCc1ccccc1)C1=C[C@H](c2ccc3c(c2)OCO3)C[C@H](OCCCCO)O1 | -12.2%
CC1=C(C(=O)NCc2cccc(Cl)c2)C2(CCCCCC2)OC1=O | 2.4%
CNc1oc(-c2ccc(Cl)cc2)nc1C#N | -12.9%
COCCNC(=S)Nc1cccc2cnccc12 | 2.2%
CC(C)CCC1CC(CSC(=N)N)OC1=O (stereo not given) | 9.1%

# The results go on.
mol | VDR inhibitor
Cc1ccc(Cl)cc1NC(=O)CSCc1cnn(-c2ccccc2)c1-n1cccc1 | -18.0%
CN(C)CC(C)(C)CNC(C(=O)Nc1ccc(Cl)cc1C(F)(F)F)c1ccccc1 (stereo not given) | 13.2%
Cc1ccc(C)c(-c2cc(C(=O)NCc3cccs3)c3ccccc3n2)c1 | 6.2%
Cc1ccc(-n2c(=O)c3cccnc3n2CC(=O)NCc2ccc(Cl)cc2)cc1 | -10.4%
COc1ccc(NC(=O)c2cc(C3CC3)nc3c2cnn3C(C)C)cc1OC | -0.9%
c1ccc2c(c1)[nH]c1ccncc12 | -20.4%
Cc1ccc(N2CC(C(=O)Nc3ccccn3)CC2=O)cc1 (stereo not given) | -15.3%
CCOc1ccc(CN2CCCC(N3CCN(c4ccc(OC)cc4)CC3)C2)cc1 (stereo not given) | -2.2%
Cc1cc(-c2ccco2)n(CC(=O)NCc2ccco2)n1 | -11.5%
CCCCSc1ncnc2c1ncn2C1CCCCO1 (stereo not given) | -8.2%

# Following part.
mol | VDR inhibitor
CCc1cccc(NC(=O)CCNS(=O)(=O)c2ccc3c(c2)oc(=O)n3C)c1 | -2.8%
COc1ccc(CCN2CC(C(=O)N(C)Cc3c(C)n[nH]c3C)CCC2=O)cc1 (stereo not given) | 7.5%
COCCN=C1Sc2nc3c(C)cccc3cc2CN1Cc1ccco1 | 89.1µM*
COc1cc(OC)cc(-c2c(-c3cccs3)c3cc(-c4ccc5c(c4)OCO5)ccc3n2C)c1 | 5.1%
COc1c(C)cccc1C(=O)Nc1ccc(N2CCN(C(=O)c3ccccc3C)CC2)cc1 | 7.0%
CCOc1ccc(/C=N/NC(=O)CN2CCCCC2)cc1OCC | -0.6%
O=C(Nc1cccc(Cl)c1)c1csc(-c2ccccc2)n1 | 7.3%
CCC(C)NC(=O)C1CN(S(=O)(=O)c2ccccc2)CCN1S(=O)(=O)c1ccccc1 (stereo not given) | 3.5%
C=CCN1C(=O)C2(OCCCO2)c2c(C)ccc(C)c21 | -3.0%
Cc1c(C(=O)N2CCC(C)CC2)sc2ncnc(N(C)c3ccccc3)c12 | -1.2%

# Five structures from above, sorted by formula weight, rising:
mol | VDR inhibitor
C=CCN1C(=O)C2(OCCCO2)c2c(C)ccc(C)c21 | -3.0%
O=C(Nc1cccc(Cl)c1)c1csc(-c2ccccc2)n1 | 7.3%
COCCN=C1Sc2nc3c(C)cccc3cc2CN1Cc1ccco1 | 89.1µM*
COc1c(C)cccc1C(=O)Nc1ccc(N2CCN(C(=O)c3ccccc3C)CC2)cc1 | 7.0%
CCC(C)NC(=O)C1CN(S(=O)(=O)c2ccccc2)CCN1S(=O)(=O)c1ccccc1 (stereo not given) | 3.5%

# Next structures follow.
mol | VDR inhibitor
O=C(O)C(Oc1ccc2cc(-c3ccc(Cl)cc3)c(=O)oc2c1)c1ccccc1 (stereo not given) | -17.3%
CC1CCCC(C)N1CCCNC(=O)c1ccc2c(c1)NC(=O)c1ccccc1S2 (stereo not given) | -2.1%
CC1=C(C(=O)Nc2cccc(F)c2)C2(CCCCC2)OC1=O | -1.1%
COc1ccc(-c2nc3ccncc3[nH]2)cc1OC | 0.5%
CC1Cc2ccccc2N1C(=O)c1ccnc(C(C)(C)C)c1 (stereo not given) | 0.1%
COc1ccc(NC(=O)/C(=C\c2ccco2)NC(=O)c2ccco2)cc1 | 6.1%
COc1ccc(C(=O)NC(C(=O)NCc2ccccn2)C(C)C)cc1 (stereo not given) | -2.6%
CCCCCCSc1nc(O)c(C2OC(=O)c3c2ccc(OC)c3OC)c(=O)n1-c1ccccc1 (stereo not given) | ?
CO[C@]1(NC(=O)[C@H](C(=O)O)c2ccc(O)cc2)C(=O)N2C(C(=O)O)=C(CSc3nnnn3C)CO[C@H]21 | ?
O=C(COc1ccc(Cl)cc1)N(Cc1ccccc1)c1ccccn1 | -16.6%

# Next section:
mol | VDR inhibitor
Cc1ccc(C(CC(=O)O)NC(=O)CN2C(=O)c3ccccc3C2=O)cc1 (stereo not given) | 10.4%
COc1ccc(CNC(=O)c2ccccc2C(=O)O)cc1 | -1.6%
Cc1ccc2c(c1)N(CC(=O)NC1CCCCC1)C(=O)c1cccnc1O2 | -13.7%
CN1CCN(c2cc3c(nn2)Oc2ccccc2N3C)CC1 | 4.3%
O=C(N[C@@H]1C/C=C\C[C@H](CC(=O)N(CCO)Cc2ccccc2)C(=O)N[C@@H](Cc2ccccc2)COC1=O)OCC1c2ccccc2-c2ccccc21 | -4.7%
O=C(CCC(=O)Nc1cccc([N+](=O)[O-])c1)NCc1ccccc1 | -15.7%
NCCN1CCN2C(=O)CN(C(=O)c3ccccc3)CC12 (stereo not given) | 10.6%
CCN1C(=O)C(CC(=O)Nc2ccc(F)cc2)N(CCCN2CCN(c3ccc(F)cc3)CC2)C1=S (stereo not given) | 25.4%
Cn1c(=NC(=O)COc2ccccc2)sc2cc(F)cc(F)c21 | 3.8%
Cc1cnc(C(=O)OCC(=O)N(Cc2ccccc2)C(C)C)cn1 | 21.2%

# (more compounds)
mol | VDR inhibitor
CC(=O)N(O)C/C=C/c1cccc(Oc2ccccc2)c1 | -2.5%
Cc1nnc(SCC(=O)Nc2c(C)n(C)n(-c3ccccc3)c2=O)n1Cc1ccccc1 | -11.1%
OCC1(Cc2ccc(Cl)cc2)CCN(Cc2ccccc2F)CC1 | -22.3%
O=C(COc1ccc2ccccc2c1)NNC(=O)Nc1ccccc1F | -16.8%
COc1ccc(C2CC(c3cccc(C)c3)n3nc(N)nc3N2)cc1 (stereo not given) | -10.2%
COc1ccc(-c2cc(C(=O)N3CCN(c4ccc(F)cc4)CC3)no2)cc1 | ?
Cc1cc(=O)c(C(=O)Nc2cccc(N3CCCC3=O)c2)nn1-c1ccccc1Cl | -8.0%
CC1(C)C2CCC(C2)C1C/C=N/NC(N)=S (stereo not given) | -3.2%
CN(CCc1ccccc1)C(=O)c1ccc(NC(=O)Cc2ccc(NC(=O)C3CCN(C(=O)C4CC4)CC3)cc2)cc1 | -14.4%
S=C(Nc1cccc(Cl)c1)Nc1ccc2c(c1)OCCO2 | 2.0%

# (listing goes on)
mol | VDR inhibitor
CCCN1CCC(NC(=O)Cc2ccccc2OC)CC1 | -12.0%
COc1ccc(NC(=O)c2ccc3c(c2)c(C)c(C)n3Cc2ccc(F)cc2)c(OC)c1 | 4.5%
CC(C)c1ccc(NC(=O)C2=CC=CN3CCS(=O)(=O)N=C23)cc1 | -3.4%
CN(C)CCN1C(=O)C(O)=C(C(=O)c2ccco2)C1c1ccccc1F (stereo not given) | -7.1%
CC(C(=O)NCc1ccccc1)N1C(=O)C2CC=C(Cl)CC2C1=O (stereo not given) | 8.7%
O=C(CNc1cc(S(=O)(=O)N2CCOCC2)ccc1NCC1CCCO1)Nc1ccccc1F (stereo not given) | -3.3%
COc1ccccc1-c1noc(-c2ccc(N3CCN(c4ccccc4)CC3)c([N+](=O)[O-])c2)n1 | 19.7%
CC1CN(c2oc(-c3ccco3)nc2S(=O)(=O)c2ccccc2)CC(C)O1 (stereo not given) | -4.3%
CCOc1ccccc1N1CCN(C(=O)c2ccc3c(c2)OCO3)CC1 | -7.9%
Cc1cccc(N2CCN(C(=O)CN3C(=O)CSc4c3c(C)nn4-c3ccccc3)CC2)c1C | 13.7%
CCCCCC(=O)NNC(=S)NC(=O)c1ccc([N+](=O)[O-])cc1 | ?
O=C(CN1CSCC1=O)N1CCN(S(=O)(=O)c2cccc(F)c2)CC1 | 2.6%
COc1ccc(NC(=O)CS(=O)CC(=O)NCc2cccc(C(F)(F)F)c2)cc1 (stereo not given) | 3.6%
